Screening data: PubChem BioAssay, ICCB-Longwood Screening Facility, Harvard Medical School
HCMV UL50-53 inh: inhibitors of HCMV UL50-UL53 nuclear egress complex interaction | HTRF UL50-UL53 interaction, normalized percent inhibition | inhibition, % (no concentration beside the values) | 0.15% of 190,000 active | AID 1918969;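 active = both replicates at 50% or more, plus weaker picks with an unusually low signal ratio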;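 note: stock transfer was 100 nL into about 20 µL; 0% = negative control wells and 100% = wells with untagged competitor protein; inactives centre near -12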
GIV Gai3 FP: inhibitors of GIV GBA-motif binding to rat Galpha-i3; P08753; Galpha-i3/FITC-GIV peptide fluorescence polarization, 90 min; hits give low values; scaled: aluminum fluoride 0%, vehicle 100%; percent of control (FP), % (concentration not given with the values); 0.42% of 210,000 active; AID 1224905;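 active = replicate mean at 85% of control or lower, very high polarization wells dropped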;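 note: wells of about 15 µL received 100 nL stock; the first replicate is given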
Target sequence (P08753 whole entry, looked up): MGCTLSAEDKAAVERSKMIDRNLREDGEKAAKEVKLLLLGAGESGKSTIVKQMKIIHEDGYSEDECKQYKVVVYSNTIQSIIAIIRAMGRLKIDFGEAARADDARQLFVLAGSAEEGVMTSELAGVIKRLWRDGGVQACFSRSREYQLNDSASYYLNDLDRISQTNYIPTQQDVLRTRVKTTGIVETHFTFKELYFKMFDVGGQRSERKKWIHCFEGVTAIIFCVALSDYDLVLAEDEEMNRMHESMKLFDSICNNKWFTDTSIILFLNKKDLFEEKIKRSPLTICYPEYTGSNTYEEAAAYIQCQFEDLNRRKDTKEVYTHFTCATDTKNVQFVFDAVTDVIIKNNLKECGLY
Sa growth 42C: blocks Staphylococcus aureus growth | S. aureus RN4220 growth, OD600, 20 h, 42 °C; hits give low values | relative growth, % (test concentration not listed) | 0.53% of 170,000 active | AID 720641;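 active = growth at 42 °C up to 50% and 20 or more points under that at 30 °C, or under 10% at both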;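 note: 300 nL library stock went into each well; scaled to the means of positive and negative controls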
Sa growth 42C second temp: also measured in Sa growth 42C; calls as there; relative growth, %; measured here: growth at 30 °C;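 optical density after 20 h as mean of two plates; 100% = untreated growth and lower means inhibition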
The depositor's hits bear a star; . = no result given; & = joins results of further samples.

SMILES	HCMV UL50-53 inh	GIV Gai3 FP	Sa growth 42C	Sa growth 42C second temp
O=C(NCCCN1CCCC1)c1cccc(N2CCCC2=O)c1	1.1	98.3	105.3	97.9
CCCC1c2ccsc2CCN1C(=S)Nc1ccc(Cl)cc1Cl (centres undefined)	4.0	108.2	82.2	100.2
Nc1ccc2nc(Cc3ccc(F)cc3)[nH]c2c1	10.4	103.8	.	.
C=C(C)c1cccc(C(C)(C)NC(=O)NC23CC4CC(CC(C4)C2)C3)c1	.	105.8	100.5	88.6
CN(CC(=O)Nc1ccccc1N1CCOCC1)Cc1ccc(Cl)cc1	-3.8	.	122.7	64.2
Cc1cc(C)n2nc(SCCC(=O)NCc3c(F)cc(F)cc3F)nc2n1	.	98.7	90.4	77.4
N#Cc1ccccc1NC(=O)Cn1cnc2onc(-c3cccc(F)c3)c2c1=O	.	102.6	104.6	93.3
CNc1ccc2nnc(CCNC(=O)c3ccccc3)n2n1	.	103.3	81.4	85.5
COc1cccc(NC2CC(=O)N(c3c(C)cccc3C)C2=O)c1 (centres undefined)	-23.6	.	77.2	62.9
COc1cccc(OCc2nc3ccccc3n2CCOc2ccccc2C)c1	-22.2	101.6	84.1	75.1
CC1Oc2ccc(S(=O)(=O)N3CCCC(C(=O)NC4CCCC4)C3)cc2NC1=O (centres undefined)	-16.5	109.6	.	.
O=C(CSc1nnc(-c2ccccc2)o1)N1CCCc2ccccc21	-4.8	104.9	104.3	86.2

Quoted from the listing, 6 compounds:
SMILES	HCMV UL50-53 inh	GIV Gai3 FP	Sa growth 42C	Sa growth 42C second temp
Cc1cc(C)n2nc(SCCC(=O)NCc3c(F)cc(F)cc3F)nc2n1	.	98.7	90.4	77.4
N#Cc1ccccc1NC(=O)Cn1cnc2onc(-c3cccc(F)c3)c2c1=O	.	102.6	104.6	93.3
CNc1ccc2nnc(CCNC(=O)c3ccccc3)n2n1	.	103.3	81.4	85.5
COc1cccc(NC2CC(=O)N(c3c(C)cccc3C)C2=O)c1 (centres undefined)	-23.6	.	77.2	62.9
COc1cccc(OCc2nc3ccccc3n2CCOc2ccccc2C)c1	-22.2	101.6	84.1	75.1
CC1Oc2ccc(S(=O)(=O)N3CCCC(C(=O)NC4CCCC4)C3)cc2NC1=O (centres undefined)	-16.5	109.6	.	.

(list continues)
SMILES	HCMV UL50-53 inh	GIV Gai3 FP	Sa growth 42C	Sa growth 42C second temp
Cc1ccc(CCNC(=O)CN2C(=O)COc3ccc(S(=O)(=O)N4CCCC4)cc32)cc1	.	102.3	113.1	86.2
Cn1ccnc1SCC(=O)NC1Cc2ccccc2C1	-7.7	101.2	98.4	91.5
CCOC(=O)c1cnc2c(ccc3ccccc32)c1Nc1ccccc1O	-8.2	105.7	112.1	92.3
O=C(Nc1cccc2nsnc12)C1CCCN(S(=O)(=O)N2CCCC2)C1 (centres undefined)	-64.8	99.3	.	.
Cc1csc(N(C(=O)CCc2nc3ccccc3o2)c2ccccc2)n1	-14.6	.	91.1	95.2
CCN1CCN(C(=O)C2CCN(C(=O)c3cc4sccc4n3Cc3ccc(F)cc3)CC2)CC1	4.3	106.7	102.8	96.4
Cc1cc(C)c2c(n1)nn1c(C)c(CCC(=O)Nc3cccc(C)c3C)c(C)nc21	-4.4	99.0	105.7	94.2
COC(=O)c1sccc1NNC(=O)/C(C)=C/C(=O)O	-31.4	99.0	91.3	84.0
Cc1ccc(NC(=O)Cn2c(=O)n(CC3CCCO3)c(=O)c3ccccc32)cc1 (centres undefined)	2.7	97.4	87.8	87.9
CCOC(=O)c1c(C)nsc1NC(=O)Oc1ccccc1	11.8	110.3	115.5	98.4
O=C(COc1ccccc1)Nc1noc(-c2ccccc2)n1	-1.2	97.1	.	.
CCCC(C(=O)NC1CCCC1)N(C(=O)Cn1nnc(-c2ccc(C)o2)n1)C1CCCC1 (centres undefined)	-10.4	102.0	100.9	108.3
C#CCn1c(C2CC(=O)N(c3cccc(C(F)(F)F)c3)C2)nc2ccccc21 (centres undefined)	-1.1	.	104.2	89.0
Cc1ccc(-c2nc3c(s2)CN(S(C)(=O)=O)CC3)cc1	-22.3	106.1	.	.
O=C(CSc1nc2ccccc2c(=O)n1Cc1ccco1)NCc1ccccc1	5.1	102.7	107.4	98.7
O=C(c1cnc2ccc(F)cc2c1Nc1ccc(Cl)cc1)N1CCCCC1	-26.4	100.0	.	.
Cc1ccc(Nc2nc(C)cc(=O)[nH]2)cc1	-12.4	99.2	.	.
CCOC(=O)C1=C(C)N(C(=O)Oc2ccccc2)C(SC)=NC1c1ccccc1 (centres undefined)	13.5	102.2	119.3	98.1
O=C(CCc1cn(Cc2ccccc2Cl)c2ccccc12)N1CCc2ccccc21	.	104.8	98.7	88.4
CCOc1ccc(OCC)c(Nc2nc3ccc(Cl)cc3n3cnnc23)c1	-28.8	105.7	93.4	88.4
CN1CCN(C(=O)c2sc3ncccc3c2-n2cccc2)CC1	8.9	103.1	.	.
CC(C)=CC(=O)Nc1ccc(Cl)cc1	-27.3	.	103.4	78.8
O=C(Nc1ccccc1-c1nc2ccccc2[nH]1)c1cc([N+](=O)[O-])ccc1Cl	-25.5	99.8	.	.
COc1ccc(Br)cc1/C=C1\N=C(c2cc(C)ccc2[N+](=O)[O-])OC1=O	-27.7	97.6	.	.
O=C(NC1CC(=O)N(c2ccc(Cl)cc2)C1)c1ccc2c(c1)OCO2 (centres undefined)	.	92.7&104.8	103.2	86.7
C=CCOc1ccc(/C(O)=C2\C(=O)C(=O)N(CCCN3CCOCC3)C2c2ccc(OC)c(OC)c2)c(C)c1 (centres undefined)	-21.5	102.4	89.1	91.7
Cc1cc(C(=O)COC(=O)c2ccc3c(=O)n4c(nc3c2)CCCCC4)c(C)n1C1CC1	-29.1	.	104.2	96.2
Cc1ccc(CCNc2nc3c(S(=O)(=O)c4ccccc4)nnn3c3ccsc23)cc1	.	106.2	115.8	86.3
Cc1csc(SCC(=O)NC(=O)Cc2ccccc2)n1	-24.9	.	79.4	87.2
O=C1NC(Cc2ccccc2)C(=O)N1c1ccccc1 (centres undefined)	-35.4	107.5	91.5	80.0
CCn1cc(C(=O)N2CCN(c3cc(Cl)ccc3C)CC2)c(=O)c2cc(S(=O)(=O)N3CCCC3)ccc21	-28.0	97.3	103.7	92.9
CC(=O)NC1=NN(C(C)=O)C2(CCCC2)S1	-21.5	105.5	135.6	93.8
COc1ccc(S(=O)(=O)N(CCC(=O)O)Cc2ccco2)cc1OC	-13.6	103.9	100.6	90.0
Cc1ccc(NS(=O)(=O)c2c(C)nc3sccn3c2=O)c(Cl)c1	6.1	100.1	100.0	109.8
CCOC(=O)c1noc2nc(C)n(CC(=O)Nc3cc(Cl)ccc3OC)c(=O)c12	.	100.6	100.4	100.5
O=C(CCc1nc2cccnc2n1-c1ccccc1)Nc1ccc(Cl)c(Cl)c1	-29.0	104.0	107.2	86.3

Brought forward from above: 2 compounds, then new ones.
SMILES	HCMV UL50-53 inh	GIV Gai3 FP	Sa growth 42C	Sa growth 42C second temp
CCOC(=O)c1noc2nc(C)n(CC(=O)Nc3cc(Cl)ccc3OC)c(=O)c12	.	100.6	100.4	100.5
O=C(CCc1nc2cccnc2n1-c1ccccc1)Nc1ccc(Cl)c(Cl)c1	-29.0	104.0	107.2	86.3
N#CCCN(Cc1ccccc1)S(=O)(=O)c1ccc(-c2ccccn2)s1	1.1	106.5	112.0	86.7
CCN(Cc1nc(-c2cccc(C)c2)no1)C(=O)c1ccc(Br)o1	1.4	99.1	78.7	74.8
CCOC(=O)CCc1nc(Cl)c2c(CC)noc2n1	-13.0	96.9	.	.
CC(C)c1ccc(S(=O)(=O)c2cn(CC(=O)Nc3ccccc3)c3ccccc3c2=O)cc1	-8.1	95.3	.	.
Cc1cccc(N2CCN(C(=O)CN3C(=O)COc4ccc(S(=O)(=O)N5CCCC5)cc43)CC2)c1C	-11.1	103.2	108.8	87.0
Cc1ccc(Cn2ccsc2=NC(=O)CSc2nnc(-c3ccc4c(c3)OCO4)o2)cc1	-6.1	.	121.3	65.6
CCc1ccccc1NC(=O)C1COc2ccccc2C1 (centres undefined)	.	96.6	110.8	95.5
Cc1ccc2c(c1)N(C(=O)N1CCC(C(=O)NCc3ccccc3F)CC1)CC(C)O2 (centres undefined)	-8.1	97.3	110.7	100.3
CCCC(=O)Nc1cccc(-c2nc3ccccc3c(=O)o2)c1	6.6	106.0	90.3	104.7
CC1Cc2ccccc2N1C(=O)Nc1cccc(F)c1 (centres undefined)	-48.3	101.7	99.0	100.8
Cc1ccc(Nc2ccnc3cc(Cl)ccc23)cc1F	-2.5	97.2	86.0	74.0
CN(C)S(=O)(=O)c1ccc(-c2nc(C#N)c(N3CCc4ccccc4C3)o2)cc1	-11.1	100.5	.	.
COc1ccccc1N1CCN(S(=O)(=O)c2c(C)sc3ncn(CC(=O)Nc4ccc(C(F)(F)F)cc4)c(=O)c23)CC1	-26.1	102.2	93.5	86.6
COc1ccc(N2CCN(CCCNC(=O)c3ccc4nc(CCc5ccccc5)oc4c3)CC2)cc1	.	106.3	101.0	101.7
Cn1cccc1Cc1nnc(SCC(=O)Nc2ccccc2C(F)(F)F)n1-c1ccc(F)cc1	.	102.8	94.2	99.7
O=C(NCCn1cnc2cccnc21)N(c1ccccc1)c1ccccc1	0.9	101.2	114.2	97.3
O=c1[nH]c2ccccc2n1CN1CCOCC1	-18.5	.	99.5	88.8
O=C(CN1CCN(c2ccc(C(F)(F)F)cn2)CC1)NC1CCCc2ccccc21 (centres undefined)	-13.7	.	107.2	56.6
CCCCn1c(-c2cccs2)nc2ccccc21	-22.4	103.3	69.1	64.3
Cc1ccc(C(c2c(O)[nH]c(=S)[nH]c2=O)N2CCCCC2)cc1 (centres undefined)	.	103.4	95.7	83.6
COc1ccc(OC)c(NC(=O)c2cc3cccc4c3n2CC(C)S4)c1 (centres undefined)	-36.7	106.2	105.2	92.7
COc1cccc(C2C(C(=O)c3ccccc3)=C(C)Nc3nc4ccccc4n32)c1 (centres undefined)	-11.4	.	97.5	80.1
Cc1cccc(-c2nc3c4ccccc4nc(N4CCN(c5ccc(F)cc5)CC4)n3n2)c1	-13.3	100.6	94.2	87.9
c1ccc(-n2nnnc2Oc2ccc(-n3ccnc3)cc2)cc1	0.4	.	115.2	82.0
O=C(CCCCl)NCc1cccnc1	-22.6	.	116.7	81.8
O=C(OCc1cc(F)cc2c1OC(c1ccccc1)OC2)c1ccco1 (centres undefined)	-12.2	.	87.4	85.6
O=C1c2ccccc2C(=O)N1c1ccc(S(=O)(=O)Nc2ccc(F)cc2)cc1	-22.8	99.7	104.5	72.0
Cc1ccc(C)c(C(=O)c2sc(Nc3ccccc3)nc2N)c1	9.8	113.4	.	.
COCCNC(=O)N1CCN(S(=O)(=O)c2ccc3c(c2)NC(=O)C(C)O3)CC1 (centres undefined)	-11.1	107.6	.	.
Cc1ccc(CN2CCN(CC(=O)NCc3ccc4c(c3)OCO4)C2=O)cc1	.	106.9	115.8	88.3
COc1ccc(CNC(=O)COc2ccccc2-c2nnc(-c3ccccc3)o2)cc1	2.7	103.1	.	.
Cc1ccccc1NC(=O)c1cc2cccc3c2n1CC(C)S3 (centres undefined)	-17.5	100.9	110.6	103.1
CCC(=O)C1=C(c2ccc(Cl)cc2)N(C(=O)CC)n2c(C)nnc2S1	.	97.2	107.8	99.1
Cc1cccc(NC(=O)NCc2nc(-c3ccccc3)oc2C)c1	-4.5	108.6	.	.
NC(=O)c1ccccc1NC(=O)Cc1c(F)cccc1Cl	-11.0	105.1	102.4	95.9
Cc1cccc(N2CCN(CC(=O)NCC(F)(F)F)CC2C)c1 (centres undefined)	-24.0	.	87.0	98.6

Part of the list above, as labelled records.
O=C(OCc1cc(F)cc2c1OC(c1ccccc1)OC2)c1ccco1 (centres undefined)
  HCMV UL50-53 inh = -12.2
  GIV Gai3 FP = .
  Sa growth 42C = 87.4
  Sa growth 42C second temp = 85.6
O=C1c2ccccc2C(=O)N1c1ccc(S(=O)(=O)Nc2ccc(F)cc2)cc1
  HCMV UL50-53 inh = -22.8
  GIV Gai3 FP = 99.7
  Sa growth 42C = 104.5
  Sa growth 42C second temp = 72.0

New compounds follow:
SMILES	HCMV UL50-53 inh	GIV Gai3 FP	Sa growth 42C	Sa growth 42C second temp
Cc1ccc(-c2ccc(=O)n(-c3c(C)noc3C)n2)cc1S(=O)(=O)N1CCCC1	-28.3	106.8	.	.
c1cc(CN2CCCCC2)n(-c2nnc(N3CCCCCC3)s2)c1	-27.1	106.4	87.5	79.4
CCOC(=O)c1c(C)[nH]c(C)c1S(=O)(=O)N1CCC(C(=O)Nc2cc(Cl)ccc2OC)CC1	.	107.3	79.9	75.9
COc1ccc(CNn2cnnc2SCc2ccc(F)cc2)cc1OC	-7.9	102.2	103.9	82.7
O=C(Nc1ccccc1Sc1c(Cl)cncc1Cl)c1cccs1	-2.2	101.2	84.0	69.7
Nc1nc(N)c(N=O)c(OCC2CCCCC2)n1	-96.0&-129.9	96.8	.	.
COc1ccc(-c2cc(OCC(=O)Nc3ccccc3)c3ccccc3n2)cc1	-14.9	101.9	.	.
C/C(=N\NC(N)=S)C1CC2CCC1C2 (centres undefined)	0.1	.	100.2	88.4
CC1(C)CC(=O)C2=C(C1)OC(N)=C(C#N)C2c1ccc(OC(=O)N2CCOCC2)cc1 (centres undefined)	-13.4	108.1	.	.
CCOc1ccc(-c2nnc(NC(=O)Nc3ccccc3)o2)cc1	-16.4	.	85.4	81.5
COC(CNC1CCCc2c1[nH]c1ccc(C)cc21)OC (centres undefined)	-14.2	103.2	89.8	83.4
O/N=C/c1cccn1-c1ncc(C(F)(F)F)cc1Cl	-31.2	107.6	.	.
COC(=O)/C(C#N)=C/c1ccc(C)o1	-104.3	104.1	109.2	103.2
